Screening results from PubChem BioAssay.
KCNQ2 inh: KCNQ2 potassium channel inhibitors, primary screen, cell-based, CHO-K1, FluxOR thallium flux, B-score (AID 2156); O88943; 20 min; stronger effect = lower value; only compounds with negative scores are shown here; some inactives read as strong as hits; B-score at 10 µM; 310,000 compounds, 1.1% hits;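 active means fluorescence ratio B-score at most minus 3 library SDs, with starting brightness B-score within 2 library SDs, cut at about -5.5 in these data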
Target sequence (O88943 whole entry, looked up): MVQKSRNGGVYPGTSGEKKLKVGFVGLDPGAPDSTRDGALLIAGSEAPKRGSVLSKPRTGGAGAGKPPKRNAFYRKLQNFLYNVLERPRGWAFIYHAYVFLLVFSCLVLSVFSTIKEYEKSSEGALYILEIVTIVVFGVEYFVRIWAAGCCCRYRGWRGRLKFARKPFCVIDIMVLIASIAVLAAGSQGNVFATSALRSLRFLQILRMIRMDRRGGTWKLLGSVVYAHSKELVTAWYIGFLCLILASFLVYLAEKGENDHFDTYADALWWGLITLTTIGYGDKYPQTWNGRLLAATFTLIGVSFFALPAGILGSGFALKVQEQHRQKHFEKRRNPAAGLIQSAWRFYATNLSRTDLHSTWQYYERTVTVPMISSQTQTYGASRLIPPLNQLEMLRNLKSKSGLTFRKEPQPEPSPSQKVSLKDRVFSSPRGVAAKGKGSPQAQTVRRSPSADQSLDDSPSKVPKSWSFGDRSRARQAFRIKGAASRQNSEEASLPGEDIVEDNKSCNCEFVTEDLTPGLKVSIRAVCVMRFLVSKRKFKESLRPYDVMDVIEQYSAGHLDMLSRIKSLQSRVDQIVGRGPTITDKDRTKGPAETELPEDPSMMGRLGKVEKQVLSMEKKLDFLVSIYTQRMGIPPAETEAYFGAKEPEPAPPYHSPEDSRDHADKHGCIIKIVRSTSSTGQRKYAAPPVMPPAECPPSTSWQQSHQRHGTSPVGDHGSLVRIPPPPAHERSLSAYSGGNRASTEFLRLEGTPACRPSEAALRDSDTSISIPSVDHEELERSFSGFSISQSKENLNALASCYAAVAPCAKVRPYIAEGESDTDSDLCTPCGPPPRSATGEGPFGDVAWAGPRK
KCNQ2 inh baseline: recorded beside KCNQ2 inh, whose call it bears; B-score; measured here: initial fluorescence intensity artifact check;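 brightness before thallium and not channel activity; 0 = typical well and far values either way flag optical interference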
* marks the source's active call; other numbers are inactive results; i = inactive.

Results follow in this order: KCNQ2 inh, KCNQ2 inh baseline
- Cc1[nH]c2ccccc2c1C(c1ccccn1)N1CCC(C)CC1 (stereo not drawn)
  i, 0.35
- CCOC(=O)C1(CCc2ccccc2)CCN(Cc2cccc3nccnc23)CC1
  -5.88*, -1.18*
- COC(=O)c1cccc(NC(=O)CN(c2ccc3c(c2)OCO3)S(C)(=O)=O)c1C
  i, 0.04
- Cc1cc(C)cc(NC(=O)c2ccc(Cn3nc(C)c(Cl)c3C)o2)c1
  i, -0.8
- CN(c1ccc(OCC(=O)Nc2ccc3[nH]c(=O)[nH]c3c2)cc1)S(=O)(=O)c1ccc(Cl)cc1
  i, 0.49
- CCN(CC(=O)Nc1c(F)cccc1F)C(=O)C(C)SCc1nc2sc(C)c(C)c2c(=O)[nH]1 (stereo not drawn)
  i, -0.44
- CCOCCCNC(=O)CN1C(=O)/C(=C\c2ccc(C)cc2)Sc2ccccc21
  i, -1.09
- Cc1ccccc1NC(=O)CSc1nc(N)c(C#N)c(-c2cccs2)c1C#N
  i, -0.86
- Cc1ccc(C(=O)C2CCN(CC(=O)Nc3ccc(N(C)C)cc3)CC2)cc1
  i, 0.08
- CCC(c1nnnn1Cc1ccc(OC)cc1)N1CCN(c2ccc(OC)cc2)CC1 (stereo not drawn)
  i, -1.04
- Cc1ccc(S(=O)(=O)N(C)CC(=O)Nc2nc3ccccc3s2)cc1
  i, 0.93
- NC(=O)c1sc2nc3c(c(-c4cccnc4)c2c1N)CCC3
  i, -0.59
- COCCNC(=S)N1CCC(C(=O)c2ccc(C)cc2)CC1
  i, 1.8
- COc1ccc(N2CCN(C(=O)CCNC(=O)c3ccc(Br)cc3)CC2)cc1
  i, 1.93
- O=C(CSc1nnnn1Cc1ccccc1)c1ccccc1F
  i, -0.16
- CC(C)C(OC(=O)c1nsc(Cl)c1Cl)C(=O)NCC1CCCO1 (stereo not drawn)
  i, 3.85
- O=C(NC1CC1)C(=O)c1c[nH]c2ccccc12
  i, 0.08
- Cc1ccsc1/C=N/NC(=O)c1nnn(-c2nonc2N)c1-c1ccccc1
  i, -1.28
- O=C(Nc1ncc(S(=O)(=O)c2ccc([N+](=O)[O-])cc2)s1)c1cccnc1
  i, 0.27
- Cc1ccc(S(=O)(=O)CCSc2nccn2C)cc1
  i, -0.51
- O=C(N/C(=C\c1ccc(Br)cc1)C(=O)N1CCOCC1)c1ccc([N+](=O)[O-])cc1
  -5.94*, 0.03*
- COc1cc(OC)cc(OC(=O)c2ccc3c(=O)n4c(nc3c2)CCC4)c1
  i, -1.86
- Cc1cccc(COc2ccccc2C(=O)OCC(=O)N(C)c2c(N)n(Cc3ccccc3)c(=O)[nH]c2=O)c1
  i, 0.01
- COC(=O)c1ccc(CN2CCCC(CNC(=O)Cc3ccc(OC)cc3)C2)cc1 (stereo not drawn)
  i, 0.55
- Cc1ccc(NC(=O)CN2CCC(NC(=O)c3ccccc3F)CC2)cc1C
  i, 0.56
- COc1ccc(CC(=O)Nc2sc3c(c2C#N)CC(C)(C)NC3(C)C)cc1OC
  i, 0.87
- Cc1ccc(NC(=O)Cc2ncon2)cc1Cl
  i, 0.13
- Cc1ccccc1NC(=O)C1CCC(=O)N1 (stereo not drawn)
  i, -0.3
- NS(=O)(=O)c1ccc(Cl)c(C(=O)Nc2ccccc2[N+](=O)[O-])c1
  i, -0.72
- COc1ccc(S(=O)(=O)N2CCOCC2)cc1C(=O)Nc1ccc2c(c1)OCO2
  i, 2.18
- Cc1ccc(CNC(=O)c2sc3nc4c(c(C(F)(F)F)c3c2N)CCC4)cc1
  i, -0.07
- Cc1cc(C(=O)N/N=C/c2c[nH]c3ccccc23)c(C)o1
  i, 3.15
- NC(=O)C1CCN(C(=O)c2cnn(-c3ccccc3)c2NC(=O)c2cccc(F)c2)CC1
  i, -0.86
- O=c1c2ccccc2nc(CSc2nnnn2-c2ccccc2)n1-c1ccccc1
  i, -0.07
- CCOc1ccc(C(=O)NCC(=O)NCC(c2cccs2)N2CCOCC2)cc1 (stereo not drawn)
  i, 0.23
- Nn1c(SC/C=C/c2ccccc2)nnc1-c1ccccn1
  i, 0.57
- C/C(=N\NC(=O)c1ccccc1[N+](=O)[O-])c1ccc(Br)s1
  i, 0.96
- COc1cccc(C=O)c1OC(=O)N1CCOCC1
  i, -0.73
- O=C(Cc1ccccc1Cl)NC1(O)C(=O)c2ccccc2C1=O
  i, 2.33
- COC(=O)COc1cc(Cl)c(C=O)cc1OC
  i, -0.88
- CCOC(=O)c1cnc(SC)nc1Oc1cccc(NC(=O)c2ccc(Cl)cc2)c1
  i, 0.92
- CCCCn1c(N)c(N(CCC(C)C)C(=O)CC2OC(=O)c3ccccc32)c(=O)[nH]c1=O (stereo not drawn)
  i, 0.03
- Cc1ccc2sc(N(CCCN(C)C)C(=O)c3ccc(S(=O)(=O)N4CCCCCC4)cc3)nc2c1C
  i, -0.79
- O=C(Nc1ccc2ccccc2n1)C1CCCCC1
  i, -0.37
- COc1ccc(-c2nc(C(=O)NCC3CCCO3)cc3c2[nH]c2ccccc23)cc1 (stereo not drawn)
  i, -0.25
- CN1C2CCC1/C(=C\c1ccccc1)C(=O)/C2=C\c1ccccc1
  i, 0.42
- Cc1cc(C)n(-c2ccc(C(=O)Nc3ccccc3N3CCOCC3)cc2)n1
  i, -2
- COc1ccccc1C(=O)Nc1ccc2c(c1)n(C)c(=O)n2C
  i, -0.26
- O=C(OCCNc1nc(-c2ccccc2)nc2ccccc12)c1ccncc1
  i, -0.13
- CC1(C(=O)NNC(=O)c2ccc(=O)oc2)CC1Br (stereo not drawn)
  i, 2.71
- Cc1ccc(C(=O)NNC(=O)c2csc(N3CCOCC3)n2)o1
  i, 0.02
- N#C/C(=C\c1cn[nH]c1-c1ccc(Cl)cc1)C(=O)NCc1ccccc1
  i, 1.73
- Cc1ccc(-c2cc3nc(C)cc(NCc4ccco4)n3n2)cc1
  i, 0.1
- COc1cc(C(=O)ON=C2C3CC4CC(C3)CC2C4)cc(OC)c1OC
  i, -0.03
- CCCn1c(SCC(=O)NNC(=O)c2ccc(OC)cc2)nnc1C(C)C
  i, 0.69
- COc1cccc(C(=O)N2CCN(Cc3ccccc3[N+](=O)[O-])CC2)c1
  i, 0.44
- O=C1CN(C(=O)NCC(=O)N2CCCC2)c2ccccc2N1
  i, -1.74
- CCc1ccc2c(c1)[C@]1(C(=O)N2)[C@@H]2C(=O)N(Cc3ccccc3)C(=O)[C@@H]2[C@@H]2CCCN21
  i, -0.82
- O=C(CNCC1CCCO1)Nc1ccccc1-n1cccc1 (stereo not drawn)
  i, -0.02
- COc1ccc(-n2nc(C(=O)NCC(=O)N3CCCCCC3)c3ccccc3c2=O)cc1Cl
  i, -0.34

Complete entries from above. Values in the order: KCNQ2 inh	KCNQ2 inh baseline
`O=C(Cc1ccccc1Cl)NC1(O)C(=O)c2ccccc2C1=O` reads i	2.33
`NC(=O)C1CCN(C(=O)c2cnn(-c3ccccc3)c2NC(=O)c2cccc(F)c2)CC1` reads i	-0.86

Continuation.
Results follow in this order: KCNQ2 inh, KCNQ2 inh baseline
- O=C1NCCN(Cc2cccc(Oc3ccccc3)c2)C1CC(=O)N1CCCO1 (stereo not drawn)
  i, -0.05
- CCCC1(C(=O)O)NC(c2cccc(OC)c2O)C2C(=O)N(c3ccccc3)C(=O)C21 (stereo not drawn)
  i, 1.16
- CC(C)(C)c1cc(-c2ccco2)c(C#N)c(SCC#N)n1
  i, 0.77
- CCC(=O)c1ccc(OCC(=O)NCCc2ccccn2)cc1
  i, -1.45
- CCN(CC)CCN(C(=O)CCOc1ccccc1)c1nc2ccc(F)cc2s1
  i, 1.51
- COCCNCC(=O)NC12CC3CC(CC(C3)C1)C2
  i, -0.05
- Cc1nnc(Nc2ccccc2)n(N)c1=O
  i, 3.14
- COc1cc(N=c2ssnc2Cl)cc(OC)c1OC
  i, 1.01
- CN(C)S(=O)(=O)N1C(=O)c2ccccc2C1=O
  i, -2.6
- Cc1onc(-c2c(Cl)cccc2Cl)c1/C(N)=N/OC(=O)C1CC1
  i, 1.02
- CN(C)c1ccc(/C=N/n2c(C3CCCCC3)n[nH]c2=S)cc1
  i, 1.51
- NC(=NCc1ccco1)NC(=O)c1ccccc1
  i, 1.03
- O=C(O/N=C1\CCS(=O)(=O)c2sccc21)c1ccccc1
  i, -0.01
- COc1ccc(/C=C/C(=O)OCC(=O)Nc2ccc(OC)c(S(=O)(=O)N3CCCCC3)c2)cc1
  i, 1.14
- CC(C)(C)C1CCc2onc(C(=O)Nc3cccnc3)c2C1 (stereo not drawn)
  i, -0.87
- Cc1ccc2nc(-c3sc4nc(C)ccc4c3N)[nH]c2c1
  i, 1.15
- COC(=O)C1=C(C)OC(N)=C(C#N)C1c1ccccc1F (stereo not drawn)
  i, 0.1
- CC(=O)c1sc(N/N=C\c2ccc(N(C)C)cc2)nc1C
  i, 0.02
- CC1Oc2ccccc2C=C1/C=N\NC(=O)c1cccnc1 (stereo not drawn)
  i, -1.33
- Cc1ccc(S(=O)(=O)Nc2c(C)nn(C)c2C)cc1C
  i, 1.72
- Cc1nn(Cc2ccccc2Cl)c(Cl)c1/C=C/C(=O)OCC(=O)NC1CCS(=O)(=O)C1 (stereo not drawn)
  i, 2.26
- Cn1ncc([N+](=O)[O-])c1C(=O)Nc1nccs1
  i, 0.31
- CC(C)NC(=O)CN(Cc1ccc(F)cc1)C(=O)CCC(=O)Nc1nccs1
  i, -1.31
- CCc1nc2nc(C)c(NS(=O)(=O)c3ccc(Br)s3)c(=O)n2[nH]1
  i, 2.3
- COc1ccc(-c2[nH]ncc2CN2CCSCC2)c(OC)c1
  i, -0.43
- CC(C#Cc1c([C@@H](C)Oc2ccccc2)nnn1Cc1ccccc1)Oc1ccccc1 (stereo partly drawn)
  -6.34*, -0.07*
- CSC1=NCCN1C(=O)c1cccc(Br)c1
  i, -1.86
- COc1ccccc1OCCn1cc(C(=O)c2ccco2)c2ccccc21
  i, -0.5
- Cc1ccc(Nc2c(-c3ccc(N(C)C)cc3)nc3ncccn23)cc1
  i, -0.12
- CCN(CC)S(=O)(=O)c1ccc(N2CCOCC2)c(NC(=O)c2cc(-c3ccccn3)nc3ccccc23)c1
  i, -1.14
- c1cc2ccc3ccc(-n4cnnn4)c4ccc(c1)c2c34
  i, 0.26
- O=S(=O)(NC12CC3CC(CC(C3)C1)C2)c1ccc(F)cc1
  i, 1.65
- COc1ccc(-c2nc(N)ncc2-c2csc(C)n2)c(O)c1OC
  i, -1.01
- CN(Cc1cccc(F)c1)C(=O)CNS(=O)(=O)c1ccc2ccccc2c1
  i, -2.75
- CCOCCn1c(-c2ccccc2)nc2ccccc21
  i, -0.03
- CCCCCCNCc1ccc(Br)cc1
  i, 0.57
- COc1ccc(NC(=O)c2ccc(NC(=O)C(C)C)cc2)c([N+](=O)[O-])c1
  i, 0.59
- CN(CCn1ccnc1)Cc1cn(Cc2ccccc2)nc1-c1ccc2c(c1)OCO2
  i, 0.34
- CC(C)NC(=O)C(c1ccc(F)cc1)N(C(=O)CCC(=O)Nc1ccccn1)C1CCCC1 (stereo not drawn)
  i, -1.93
- C=CCn1c(SCc2nc3sc(C(=O)O)c(C)c3c(=O)[nH]2)nnc1-c1ccccc1
  i, 0.38
- CC1(CC(=O)N/N=C/c2ccc(-c3ccc(C(=O)O)cc3)o2)OCCO1
  i, -0.85
- O=C(Nc1nnc(CCN2CCCCC2)s1)c1ccccc1
  i, 0.69
- O=C1CCCC(O)=C1C=Nc1ccc(O)cc1
  i, -0.55
- COc1ccc(Cl)c2sc(N(CCN(C)C)C(=O)CCS(=O)(=O)c3ccc(C)cc3)nc12
  i, -1.12
- CCOc1ccc(NC(=O)NCc2cccn2C)cc1
  i, 1.3
- COc1cc2c(cc1OC)CN(C(=O)C1(c3ccccc3)CC1)CC2
  i, 0.34
- CCN1CCN(c2ccc(N=Cc3ccc(O)cc3O)cc2)CC1
  i, 1.01
- CCN(CC)CCN1C(=O)C(O)=C(C(=O)c2ccco2)C1c1ccccn1 (stereo not drawn)
  i, -0.9
- COC(=O)c1cc(C#N)c(Oc2ccccc2)nc1C
  i, -0.43
- COc1ccc(CN(C)CC(=O)NC(C)c2ccccc2)c(OC)c1 (stereo not drawn)
  i, -0.6
- COc1ccccc1NC(=O)c1cccc(S(=O)(=O)N2CCOCC2)c1
  i, 0.19
- CC(=O)Nc1ccc(S(=O)(=O)Nc2cccc(-c3nc4cc(C)ccc4o3)c2)cc1
  i, 0.65
- CCOC(=O)C1C(=O)C=C(c2ccc(C)cc2)CC1c1ccccc1 (stereo not drawn)
  -7.15*, 0.06*
- CC1CC(C)CN(CCCNC(=O)CN2C(=O)c3cccnc3Oc3ccc(Cl)cc32)C1 (stereo not drawn)
  i, 1.03
- Cc1ccc(CNC(=O)C(=O)NCC2OCCCN2S(=O)(=O)c2ccc(F)cc2)cc1 (stereo not drawn)
  i, 0.02
- COC(=O)c1ccccc1NC(=O)c1ccc(F)cc1
  i, -0.1
- COc1ccc(-c2nc(C#N)c(NCCN(C)C)o2)cc1
  i, -0.58
- CSc1ccccc1OCc1cc(C(=O)NCCCn2nc(C)cc2C)no1
  i, -0.53
- CC1CCC(NC(=O)C2CC(=O)N(c3ccc4c(c3)OCCO4)C2)CC1 (stereo not drawn)
  i, 2.9

Six records drawn at random from those above:
Results follow in this order: KCNQ2 inh, KCNQ2 inh baseline
- O=C(Nc1nnc(CCN2CCCCC2)s1)c1ccccc1
  i, 0.69
- CCOC(=O)C1C(=O)C=C(c2ccc(C)cc2)CC1c1ccccc1 (stereo not drawn)
  -7.15*, 0.06*
- COc1ccccc1NC(=O)c1cccc(S(=O)(=O)N2CCOCC2)c1
  i, 0.19
- CC1CC(C)CN(CCCNC(=O)CN2C(=O)c3cccnc3Oc3ccc(Cl)cc32)C1 (stereo not drawn)
  i, 1.03
- O=S(=O)(NC12CC3CC(CC(C3)C1)C2)c1ccc(F)cc1
  i, 1.65
- CCN1CCN(c2ccc(N=Cc3ccc(O)cc3O)cc2)CC1
  i, 1.01

Not all compounds are listed; the hit share may differ from the screen's.
